BasE inh: BasE siderophore biosynthesis inhibition. purified BasE, fluorescence polarization binding displacement. inhibition, % (no concentration beside the values). actives 0.1% (n = 84,000). AID 485350;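 active = both replicates above 25% with normal brightness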;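 also: 0% = negative plate control signal and 100% = positive plate control signal; stock transfer was 100 nL into about 30 µL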
LANA-nucl inh: LANA-nucleosome interaction inhibition; FITC-LANA1-23 / chicken nucleosome fluorescence polarization; active compounds read low; z-score (concentration not given with the values); actives 0.3% (n = 51,000); AID 720717;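 active = both repeat wells score below -2 in polarization z-score versus plate sample wells, excluding overly bright wells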;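 also: 100 nL library stock added to about 30 µL; numbers are from one replicate; some results filed as inactive read as strong as hits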
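Material: Purified chicken nucleosomes with FITC-labelled LANA N-terminal peptide (1-23) | Reagent: 50 nM FITC-LANA1-23 probe | Medium: TEN-BT buffer, pH 7.5 | Times: 10–45 min incubation at room temperature | Detection: Fluorescence polarization | Replication: Duplicates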
* hit, by the source's call; x = not tested or not shown; & = joins results of further samples. Not all compounds are listed. The share of hits here may be higher or lower than overall.

Order of values: BasE inh	LANA-nucl inh
COC(=O)c1cc(S(=O)(=O)N(CCCN2CCOCC2)C2CCN(C)CC2)cn1C
→ -0.3	2.64
COc1cc(CCC(=O)Nc2c(C(=O)N3CCN(c4ccccn4)CC3)oc3ccccc23)on1
→ -0.1	-0.667
CC(C)n1nccc1NC(=O)CSc1nnc(Nc2ccccc2F)s1
→ -0.6	x
O=C(c1cc2cc(Br)ccc2oc1=O)N1CCN(c2ccccc2F)CC1
→ 0.9	2.59
CSc1ccc(C(C(C(=O)c2cccs2)N2CCOCC2)N2CCOCC2)cc1 (configuration not stated)
→ 0.7	0.036
CS(=O)(=O)n1nc(-c2ccco2)nc1N
→ 0.5	-1.15
CCOC(=O)c1oc2ccccc2c1NC(=O)COC(=O)CCc1nc2ccccc2c(=O)[nH]1
→ 1.0	x
CN(C)/C=C1/Nc2ccccc2C1=O
→ 1.9	x
Cc1ccc(Oc2ccc(C#N)c(C#N)c2)c(-n2nc3ccccc3n2)c1
→ -0.2	-0.835
Cc1cc(C)c2c(CC(=O)O)coc2c1
→ -0.9	0.579
O=S(=O)(c1ccccc1F)N1C2CCC1CC(O)(c1ccccc1F)C2 (configuration not stated)
→ 0.8	2.09
C=CCN1C(=S)N[C@@H]2CS(=O)(=O)C[C@@H]21
→ 0.6	x
N#CC1(NC(=O)COC(=O)c2ccc(-n3cccc3)cc2)CCCC1
→ 1.7	x
COC(=O)c1c(SC)nc2ccccc2c1OC
→ -2.7	1.78
CC1Cc2cc(S(=O)(=O)NCCC(=O)N3CCCCCC3)ccc2N1C(=O)C1CC1 (configuration not stated)
→ -1.2	-0.835
O=C(CN(C(=O)c1ccccc1)N1C(=O)CCC1=O)c1ccccc1
→ 0.6	-0.109
CN(CCc1ccccn1)C(=O)c1cccnc1Oc1ccc(Cl)cc1
→ 0.5	x
COc1ccc(NC(=O)C2CCCN2S(=O)(=O)c2ccc3c(c2)C(C)(C)C(=O)N3C)cc1 (configuration not stated)
→ 0.7	-0.894
O=C(NCc1ccco1)c1ccc(-n2cnc3cccnc32)cc1
→ 1.9	0.0745
COc1cc(-c2ccc(=O)[nH]n2)ccc1OC(F)F
→ 1.2&-1.0	-0.185&-0.28&0.398&0.774
Cc1cc(-n2c(C)cc(C(=O)Cn3cc(C(F)(F)F)cc(Cl)c3=O)c2C)no1
→ -1.4	x
Cn1c(CC(=O)Nc2ccccc2)n[nH]c1=S
→ -0.1	-0.11
COc1ccccc1OCC(=O)N1C(C)CCCC1C (configuration not stated)
→ 0.4	0.0765
NC1=NCCN1CC(=O)O
→ -0.5	0.106
CC1(C)CC(=O)C=C(NCC2CCNCC2)C1
→ -0.7	-1.33
Cc1ccccc1-n1c(C)cc(/C=C2\NC(=O)NC2=O)c1C
→ -4.2	x
Cc1cc(O)cc(O)c1C(=O)Cc1cnn(-c2ccccc2)c1
→ 23.5	x
O=C(Nc1ccc2[nH]ncc2c1)/C(=C/c1ccco1)NC(=O)c1ccccc1
→ -1.2	0.345
O=C1c2ccccc2C(=O)N1CCSc1ncccn1
→ 2.0	x
COc1cccc(NC(=O)NCc2ccccc2)c1
→ 1.2	0.306
O=C1CN(C(=O)Cn2nnc3ccccc3c2=O)c2ccccc2N1
→ -0.2	x
O=C(Nc1ccccc1)C1CCN(c2cnccn2)CC1
→ 1.6	-0.229
COc1ccccc1OCC(=O)N(C)c1ccccc1
→ -3.1	0.756
CCn1c2ccccc2c2cc(/C=C/C(=O)O)ccc21
→ 0.0	x
COc1ccc(C=Nc2ccc(/C=C\C(=O)O)cc2)cc1
→ x	-0.005
Cc1nnc2c(Nc3ccccc3I)nc3nonc3n12
→ -1.5	0.533
Cc1ccc(NC(=O)C2C3C=CC4(O3)C2C(=O)N(c2ccccc2F)C4C(=O)NC2CCCC2)cc1 (configuration not stated)
→ 0.2	1.55
S=c1cc(-c2ccccc2)ss1
→ 1.8	x
O=C(Nc1cccc2nonc12)C(F)(F)C(F)(F)C(F)(F)F
→ -0.6	0.446
CC1=C(C(N)=O)C(/C=C/c2ccccc2)n2ncnc2N1 (configuration not stated)
→ 2.5	0.224
CCN(CC)CCOc1ccc2nc(N(C)C)sc2c1
→ 2.3	x
CC(C)=CCSc1nc2sc3c(c2c(=O)[nH]1)CCCC3
→ -0.2	0.266
C/C(=N\N)c1c(-c2ccccc2)c2cc(Br)ccc2[nH]c1=O
→ -1.9	x
CN(C)S(=O)(=O)c1cccc(C(=O)OCc2cc(=O)n3ccsc3n2)c1
→ 3.0	x
CC1=C(C#N)C(=O)N(CC(C)O)C(=O)/C1=C/c1ccc(-c2ccc(Br)cc2)o1 (configuration not stated)
→ -0.2	x
CCOC(=O)CSc1nnc2c3ccccc3n(C)c2n1
→ 0.3	1.46
CC(C)(C)c1ccc(Cn2c(N)nc3ccccc32)cc1
→ 2.7	-0.404
CCc1ccc(N2C(=O)N(C)c3ccccc3S2(=O)=O)cc1
→ 0.0	0.602
O[C@H]1CCCC2CCCCC21 (some centres not stated)
→ -0.5	0.053
CCNC(=O)CSc1ccc(Cl)cc1
→ -2.0	0.408

New compounds follow:
Order of values: BasE inh	LANA-nucl inh
O=c1[nH]c(NCCO)nc2ccccc12
→ 2.3	-0.506
CC(O)CN(Cc1ccc(Cl)c(Cl)c1)CC(C)O (configuration not stated)
→ 0.8	0.12
COc1ccc(CN(Cc2cccn2C)C(=O)c2cc3cc(OC)ccc3[nH]2)cc1
→ 2.4	x
OCC1CCCN(Cc2ccc(Br)o2)C1 (configuration not stated)
→ 1.9	-1.23
Cn1nc(-c2cc(C(F)(F)F)cc(C(F)(F)F)c2)c2ccccc2c1=O
→ 2.8	x
Cc1nn(Cc2ccccc2)c(C)c1C(=O)OCC(=O)c1cc(C)n(C2CC2)c1C
→ 1.9	x
COCCNS(=O)(=O)c1ccc(C(=O)OC)n1C
→ 1.4	0.596
CC(=O)NC1CCN(C(=O)Nc2ccccc2)CC1
→ -0.5	0.817
CS(=O)(=O)N1CCN(C(=O)CSc2ccccc2)CC1
→ -1.0	0.0135
CC(=O)N(C(C)=O)n1c(C)nc2c(sc3nnc(-c4ccccc4)c(-c4ccccc4)c32)c1=O
→ -2.1	x
COc1ccc2[nH]c(=O)c(CN(Cc3cccs3)S(=O)(=O)c3cccc4nsnc34)cc2c1
→ -1.7	-0.004
CC(C)CN(C(=O)c1ccc(Cl)cc1)c1c(N)n(CC(C)C)c(=O)[nH]c1=O
→ 1.1	x
CS(=O)(=O)Nc1ccc([N+](=O)[O-])cc1OC1CCCCC1
→ -1.4	0.481
COC(=O)C1=C(C)N(Cc2ccc(C)cc2)C(=O)/C1=C\c1ccc(N(C)C)cc1
→ 1.4	-1.14
C=CCn1c(CCNC(=O)c2cccs2)nnc1SCC(=O)c1ccc(Br)cc1
→ -2.1	-0.308
COc1ccc2c(CC(=O)Nc3ccccc3)coc2c1
→ 1.0	x
COc1ccccc1OCCC(=O)NC1CCCCC1C (configuration not stated)
→ 3.1	x
Cc1cccc(N=C(N)NC(N)=O)c1
→ 4.3	1.69
Cc1ccc(N2C(=O)SC(N(CC(=O)O)c3ccccc3)C2=O)cc1 (configuration not stated)
→ 0.0	0.0705
CN(C)c1cccc(C(=O)OCC(=O)c2ccc(OC(F)F)cc2)c1
→ 0.5	x

A draw from above in order of formula weight, descending.
Order of values: BasE inh	LANA-nucl inh
COc1ccc2[nH]c(=O)c(CN(Cc3cccs3)S(=O)(=O)c3cccc4nsnc34)cc2c1
→ -1.7	-0.004
CC(C)CN(C(=O)c1ccc(Cl)cc1)c1c(N)n(CC(C)C)c(=O)[nH]c1=O
→ 1.1	x
COC(=O)C1=C(C)N(Cc2ccc(C)cc2)C(=O)/C1=C\c1ccc(N(C)C)cc1
→ 1.4	-1.14
Cc1ccc(N2C(=O)SC(N(CC(=O)O)c3ccccc3)C2=O)cc1 (configuration not stated)
→ 0.0	0.0705
CN(C)c1cccc(C(=O)OCC(=O)c2ccc(OC(F)F)cc2)c1
→ 0.5	x
CS(=O)(=O)Nc1ccc([N+](=O)[O-])cc1OC1CCCCC1
→ -1.4	0.481
Cc1cccc(N=C(N)NC(N)=O)c1
→ 4.3	1.69

Later entries
Order of values: BasE inh	LANA-nucl inh
O=C(Oc1ccc2c(=O)c(Oc3ccccc3Cl)coc2c1)c1ccco1
→ -0.2	-0.149
O=C(NCc1ccccc1)c1cc(=O)[nH]c(=O)[nH]1
→ 0.6	x
CC1(C)C(=O)Nc2ccccc2N1C(=O)COc1ccc2ccc(=O)oc2c1
→ 2.6	x
CC1(C)O[C@@H]2C[C@H]3[C@@H]4C[C@H](F)C5=CC(=O)CC[C@]5(C)[C@H]4[C@@H](O)C[C@]3(C)[C@]2(C(=O)CO)O1
→ -2.8	2.89
Cc1ccc2c(c1)/C(=N/OCC(=O)NCCc1ccccc1)C(=O)N2
→ -0.9	x
CCOC(=O)c1cc2c(ccn2C)n1Cc1ccccc1C#N
→ -0.1	0.395
COc1cccc(C(=O)NC(=O)c2oc3ccccc3c2C(N)=O)c1OC
→ -4.0	0.506
O=C(Nc1ccc(Oc2ccccc2)cc1)C1CC1
→ -0.1	-0.876
CCCNC(=O)c1ccccc1NC(=O)c1ccncc1
→ 0.9	-0.3
CC(C)(C)C(=O)C1C2C3COC(O3)C(=O)C2C2C=Cc3ccccc3N21 (configuration not stated)
→ 20.4	-1.78
O=C(Cc1c[nH]c2ccccc12)NCc1ccccc1
→ 0.6	x
Nc1cc(=O)[nH]c(SCC(=O)Nc2cccc(C(F)(F)F)c2)n1
→ -2.1	x
CCN1/C(=C2/SC(=S)N(C)C2=O)C=Cc2ccccc21
→ -1.1	-0.219
CCc1ccc(C(=O)Nc2ccc(Br)cn2)cc1
→ 2.4	x
O=C1/C(=C/C2CC=CCC2)SC(=S)N1CC1CCCO1 (configuration not stated)
→ 2.6	x
C=CCN(CC=C)C(=O)CSc1nnc2c3ccccc3n(CC)c2n1
→ 2.0	x
CN(C)/C=C(\C#N)C(=O)NC1CCCCC1
→ 2.5	-0.151
CC12CCC(=O)N1C(C(=O)OCc1cc(=O)n3cc(Br)ccc3n1)CS2 (configuration not stated)
→ 3.9	x
O=C(NCC1CCCO1)c1ccc(N2CCSc3ncccc32)s1 (configuration not stated)
→ 1.2	-0.438
CN1C(=O)N(C)C(O)C1O (configuration not stated)
→ 1.2	-1.43
Cc1cc(=O)n2ncnc2n1CC(=O)N/N=C/c1ccc(Cl)cc1
→ -0.2	0.675
Cc1cc(CNCc2ccc(CN(C)C)cc2)c(C)n1CC(C)C
→ -13.6	x
CCOC(=O)c1cc2sccc2n1CC(=O)N1CCCC1
→ 0.0	0.897
O=C(N1CCCCC1)N1CCN(C(c2ccccc2)c2ccccc2)CC1
→ 4.4	-0.269
O=C(On1c(-c2ccccc2)nc2ccccc2c1=O)c1cccc(C(F)(F)F)c1
→ 1.6	x
O=C1CC(c2ccco2)CC2=C1C(c1ccco1)Nc1ccccc1N2 (configuration not stated)
→ 0.5	0.806
CC(c1n[nH]c(=S)n1Cc1ccccc1)N(C)C (configuration not stated)
→ -1.3	x
Cc1nnc2c3ccccc3c(N3CCCCC3)nn12
→ 2.4	0.113
CCOC(=O)N1CCN(C(=O)c2ccc(CS(=O)Cc3ccc(C)cc3)o2)CC1 (configuration not stated)
→ 0.9	-0.999
CN(C)S(=O)(=O)c1ccc(N2CCCCC2)c(C(=O)Nc2ccc3c(c2)OCO3)c1
→ 0.6	x
Clc1ccc(-c2csc(NNC3=NCCCCC3)n2)cc1
→ -1.1	x
COC(=O)c1cc(/C=C/C(=O)O)oc1C
→ 1.8	x
COc1ccc(CCN(C)Cn2c(=O)oc3ccccc32)cc1OC
→ 2.3	x
Cc1ccc(CNC(=O)CN(Cc2ccccc2)S(=O)(=O)c2ccccc2)cc1
→ -2.2	x
O=C(Nc1ccc(F)cc1F)Nc1ccccc1C(=O)NCCN1CCNC1=O
→ 1.0	-0.405
C#CCSc1nc2ccccc2c(=O)[nH]1
→ 2.5	-0.659
Oc1c(Cl)cc(Cl)cc1Sc1cc(Cl)cc(Cl)c1O
→ 1.3	0.676&0.271
Cc1cc(C)n2nc(C(=O)OCC(=O)NC3CCCCC3)nc2n1
→ -0.6	x
CC(=O)NCCC(=O)Nc1nc(SCc2ccc(Cl)cc2)n[nH]1
→ 0.4	x
CCN(CC)C(=N)/C(C#N)=N\Nc1ccc(C)cc1
→ 0.0	0.308
O=C(Nc1ccccc1I)c1ccccc1
→ 1.4	x
NNc1c(O)c(C(=O)O)cc2ccccc12
→ -0.4	-0.0975
c1cc2c(s1)CCNC2C1CC1 (configuration not stated)
→ -0.5	0.001
CN(C)S(=O)(=O)c1ccc(SCC(=O)NC(=O)NC2CCCC2)nc1
→ -0.9	x
O=C(O)COc1c(Cl)cc(C=C2C(=O)NC(=S)NC2=O)cc1Cl
→ 3.7	x
CC1=C(C(=O)Nc2ccccc2C(=O)NCc2ccccn2)SCCO1
→ -1.9	1
COc1cc(OC)cc(C(=O)OC2CCCCC2=O)c1 (configuration not stated)
→ 0.6	x
CC(C)(C)C(=O)N1CCCC(c2nc3c(nnn3Cc3ccc(C(C)(C)C)cc3)c(=O)[nH]2)C1 (configuration not stated)
→ -0.7	0.342

From PubChem BioAssay
